# Assay outcomes (PubChem)
# gsp ag: agonists of gsp mutant (McCune-Albright syndrome); 340,000 compounds, 0.13% hits; Potency, µM (doses to about 76.9 µM), without a hit: at the highest dose activation (cAMP increase), usual class: activators; gsp mutant cells, cAMP HTRF, 30 min; control for the full effect not named in the record; AID 624287; active = well fitted activation curve with a large enough effect; inconclusive = small, poorly fitted or top-dose-only effect, or another doubt; inactive = no such curve, though single readings can be large or run the other way; cell line not stated here;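 further: phosphodiesterase inhibitor Ro 20-1724 added with compounds to block cAMP breakdown; potency means the concentration at half of the fitted maximal effect; nearly all actives have a fitted effect of over 60% in size; about a fifth of the inactives were tested at one dose only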
#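 Cells stably selected in G418 were plated at 2000/well, grown 16-24 hr, then given compounds in DMSO with the PDE inhibitor […] (300 uM solution added) for 30 min at 37C; cAMP was read by HTRF.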
# ClpP mod: qHTS Assay for Activators of ClpP; ATP-dependent Clp protease proteolytic subunit (Bacillus subtilis (strain 168)), P80244; purified B. subtilis ClpP, FRET peptide cleavage, 20 min; Potency, µM (highest dose often 57.5 µM), inactives show top-dose activity change, negative = active; 340,000 compounds, 1.9% hits; AID 651965, 2013; active = well fitted falling curve with a large enough effect; inconclusive = small, poorly fitted or top-dose-only effect; inactive = no such curve, though single readings can be large or run the other way; further: potency means the concentration at half of the fitted maximal effect; the source files actives as falling curves though it sought activators and does not explain the sign; nearly all actives have a fitted effect of over 65% in size; many hits overshoot -100%
# Target sequence (P80244 whole entry, looked up): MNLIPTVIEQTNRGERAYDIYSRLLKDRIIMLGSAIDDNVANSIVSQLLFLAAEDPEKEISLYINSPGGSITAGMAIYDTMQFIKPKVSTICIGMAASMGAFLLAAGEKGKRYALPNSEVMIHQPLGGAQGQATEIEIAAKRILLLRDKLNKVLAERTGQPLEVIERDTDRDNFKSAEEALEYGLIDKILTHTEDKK
#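 FRET quenching reversal measured ClpP activation: 10 microg/mL B. subtilis ClpP at pH 8 with the FRET-FV decapeptide, read at 430 nm after 320 nm excitation. The 20-min minus 0-min signal was scaled between DMSO/no-enzyme wells and ADEP (5.8 microM final).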
# TRPML1 blocker: blocks the human TRPML1 channel. Q9GZU1. TRPML1-inducible cells, Ca2+ dye fluorescence, FDSS; hits give low values; inhibition of EC80 agonist-evoked calcium signal. AID 624415. activity change, negative = inhibition, % (no concentration beside the values). 390,000 compounds, 0.02% hits; in the data active means activity change below about -50%; inconclusive means about -30% to -50%; inactive means above about -30%;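 further: stimulus is agonist 54-4 at its EC80 concentration; on the % scale 0 is the no-effect control and ±100 the full control effect; compound concentration not given in the record; the text of the record puts the active cut at -80%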
# Target sequence (Q9GZU1 whole entry, looked up): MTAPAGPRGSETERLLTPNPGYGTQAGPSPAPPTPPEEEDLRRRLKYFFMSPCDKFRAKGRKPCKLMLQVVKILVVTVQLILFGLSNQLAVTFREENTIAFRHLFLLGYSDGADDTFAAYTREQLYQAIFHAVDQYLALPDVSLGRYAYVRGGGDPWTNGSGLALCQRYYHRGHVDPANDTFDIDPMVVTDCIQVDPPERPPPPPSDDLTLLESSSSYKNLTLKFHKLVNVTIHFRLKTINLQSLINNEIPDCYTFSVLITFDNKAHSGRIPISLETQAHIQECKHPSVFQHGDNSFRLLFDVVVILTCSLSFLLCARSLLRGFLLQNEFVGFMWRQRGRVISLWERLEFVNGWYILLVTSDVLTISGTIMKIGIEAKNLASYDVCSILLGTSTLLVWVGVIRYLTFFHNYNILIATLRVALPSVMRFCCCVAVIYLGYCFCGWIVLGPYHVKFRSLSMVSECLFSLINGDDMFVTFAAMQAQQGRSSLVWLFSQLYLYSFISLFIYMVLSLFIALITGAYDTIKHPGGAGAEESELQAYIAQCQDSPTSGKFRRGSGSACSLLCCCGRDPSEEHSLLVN
#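 Tet-induced TRPML1-DL cells loaded with Ca8 no-wash calcium dye were read kinetically on FDSS. Compound addition was followed by EC80 agonist 54-4 (4 uM final); inhibition was read over 110 s.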
# TRPML1 ag: activates the human TRPML1 channel; activation, % (no concentration beside the values); TRPML1-expressing cells, Ca2+ dye fluorescence, FDSS; host cell line not named in the record; reference of the full effect not given here; 410,000 compounds, 0.12% hits; AID 624414; in the data active = activation above about 50%; inconclusive = about 30% to 50%; inactive = below about 30%; further: 0% is about no effect; the text of the record puts the active cut at 80%
#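 In this qHTS format, compounds were pin-transferred onto Ca8-dye-loaded TRPML1-DL cells induced with Tet overnight, and intracellular Ca2+ fluorescence was recorded kinetically for 110 s after a 10 s baseline. A subsequent 4uM final 54-4 (EC80) addition followed by a second 110 s read served as the antagonist phase.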
# Menin-MLL FL inh: displaces fluorescein MLL peptide from human menin; Fluorescence polarization, fluorescein-MLL peptide displacement from menin; 290,000 tested, under 10 active; AID 1766; FP activity change, % at 61.4 µM; inconclusive = falling polarisation curve, or a change in total fluorescence; inactive = total fluorescence flat and polarisation flat or rising; no compound was filed as active; the % refers to the polarisation; negative = inhibition;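 further: % of control where 0% means no effect; inhibitors lower the polarisation; unlabelled MLL peptide was the positive control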
# gsp antagonist: gsp mutant antagonism. gsp-mutant cells, cAMP HTRF, 30 min; control for the full effect not named in the record. Potency, µM (top dose mostly 76.9 µM), for the others: top-dose activity change, negative = inhibition, most hits filed as inhibitors. 340,000 compounds, 0.4% hits. AID 624288; active = falling curve of any shape with a large fitted effect; inconclusive = falling curve, mostly with a smaller effect; inactive = flat or rising curve; cell line not stated here;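 further: intracellular cAMP measured with PDE inhibitor Ro 20-1724 present during compound exposure; potency means the concentration at half of the fitted maximal effect; on the % scale 0 is the no-effect control and ±100 the full control effect; nearly all actives have a fitted effect of over 65% in size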
#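 HTRF cAMP read-out (cAMP-d2 plus anti-cAMP antibody-K in lysis buffer, 30 min RT). Before lysis, cells are exposed to compounds with […] for 30 min at 37C in DPBS containing Ca/Mg, BSA and Tween 20.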
# The depositor's hits bear a star; ? = inconclusive; . = not tested or not shown; [ ] = another dose, or the depositor's remark.
molecule	gsp ag	ClpP mod	TRPML1 blocker	TRPML1 ag	Menin-MLL FL inh	gsp antagonist
COc1cc(NC(=O)CSc2nc(-c3ccc(C)cc3)nc3c2Cc2ccccc2O3)cc(OC)c1	.	1.9%	-7	-0.8	.	.
Cc1cc(C)c(C)c(S(=O)(=O)Nc2cccnc2)c1C	0%[15.4 µM]	.	-19	0.9	.	-5%
COC(=O)CSc1nnc2n(C3CCCCC3)c(=O)c3c4c(sc3n12)CCCC4	-3%	-1.3%	41	1.1	-6.6	-11%
COc1ccc(CCCc2nnc(SCC(=O)Nc3cccc(F)c3C)o2)cc1	.	-2.0%	-4	4.8	.	.
O=C(CCCN1C(=O)S/C(=C\C=C\c2ccccc2)C1=O)Nc1ccc(C(=O)O)cc1	-16%[15.4 µM]	.	-8	-0.3	2.7	-19%
O=C(NCCS(=O)(=O)NCc1ccccc1Cl)c1ccc2c(c1)OCO2	0%[15.4 µM]	.	13	-0.1	.	-8%
O=C(COc1ccc(Cl)cc1)N(Cc1ccccc1)c1ccccn1	-10%	-4.4%	9	1.6	1.2	-23%
Cc1cc(F)ccc1NCC(=O)Nc1ccccc1Br	0%	-2.5%	-1	3.3	7.3	4%
Cc1nc2c(Br)c(C)nn2c2c1CCC2	?	-4.2%	-3	-0.6	0.3	5%
O=C(NCC(=O)N1CCCCCC1)c1ccc(OC(F)F)cc1	5%	-0.6%	9	0.0	.	1%
Cn1cccc1C(=O)C(=O)Nc1ccccc1	8%	-1.0%	6	2.0	3.4	6%
CCC(C)(C)NC(=O)C(c1ccc(OC)cc1)N(C(=O)CCC(=O)Nc1cc(C)on1)c1cc(OC)ccc1OC (configuration not stated)	-3%[15.4 µM]	1.0%	8	-1.3	0.5	-5%
CC(C)OCCCNc1sc(S(=O)(=O)c2ccccc2)nc1S(=O)(=O)c1ccc(Cl)cc1	.	-18%	33	1.9	.	.
COc1ccc(-n2nc(C(=O)NCC(=O)N3CCN(C)CC3)c3ccccc3c2=O)cc1	14%[15.4 µM]	.	19	1.1	-3.6	5%
COc1ccccc1NC(=O)C12CC3CC(C1)CC(c1ccc(C)cc1)(C3)C2	-50%[inhibitor]	-2.6%	-8	-0.3	0.5	-4%
O=C(Nc1cc(Cl)ccc1N1CCOCC1)c1ccc(=O)[nH]c1	-21%[15.4 µM]	-1.4%	-3	0.4	.	3%
COc1ccc(N2CCN(C(CNC(=O)C(=O)NCc3cccnc3)c3cccnc3)CC2)cc1 (configuration not stated)	.	-3.1%	-4	1.7	.	.
Cc1ccc(S(=O)(=O)NC(CC(C)C)C(=O)N2CCN(C/C=C/c3ccccc3)CC2)cc1 (configuration not stated)	?	0.7%	8	0.9	.	-24%
Cc1[nH]c2ccccc2c1C1=CC(=O)C=CC1=O	-12%	-11%	-9	0.4	.	-3%
CC(Oc1ccc(F)cc1)C(=O)Nc1sc2c(c1C(=O)NCc1cccnc1)CCCC2 (configuration not stated)	-17%	1.7%	52	1.3	0.5	11%
Cc1ccc(C)c(OCCC(=O)OCC(=O)Nc2cccnc2Cl)c1	11%[15.4 µM]	-1.6%	9	-0.6	.	-3%
CCN1CCN(C(=O)c2[nH]c3ccc(OC)cc3c2C)CC1	1%	?	12	0.7	-3.2	2%
N#Cc1ccsc1NC(=O)CN(Cc1ccccc1)Cc1ccccc1	24%	-1.8%	-11	0.7	6.1	-2%
O=C(Cn1nnc(-c2ccccc2)n1)NNC(=O)c1ccc(Br)cc1	-7%[15.4 µM]	.	-3	-0.3	6.3	-11%
CCCCNC(=S)Nc1ccc(Cl)cc1	-10%	1.5%	51	-0.9	-0.8	-2%
O=C(CCNS(=O)(=O)c1ccc(Br)cc1)NC1CCCCC1	-5%	.	-10	1.1	-2.7	-3%
CCN1C(=O)c2ccccc2Sc2ccc(C(=O)NC(C)C)cc21	7%	-0.7%	-11	1.5	-1.3	-2%
O=C(O)c1ccc(-n2c(-c3ccc(Br)cc3)n[nH]c2=S)cc1	21%	-0.3%	10	2.9	1.6	12%
Cc1ccc(-c2nc3ccccc3o2)cc1NC(=O)Cc1ccc(Cl)cc1	.	-4.7%	12	-0.6	.	.
CCN(CC(=O)Nc1cc(Cl)cc(Cl)c1)CC(=O)NC1CCS(=O)(=O)C1 (configuration not stated)	-31%	.	-19	0.0	.	4%
CC(=O)Nc1ccc(Nc2nc3ccc(Cl)cc3n3cnnc23)cc1	.	-2.7%	-9	-0.5	.	.
O=C(Cn1cnc([N+](=O)[O-])c1)c1ccc(F)cc1	.	1.8%	26	-0.4	.	3%
CC(OC(=O)Cc1c[nH]c2ccccc12)C(=O)NC1CCCCC1C (configuration not stated)	?	1.6%	-8	-0.6	.	-17%
COc1ccc(-c2nnc(SCC(=O)NC3CCCc4ccccc43)n2N)cc1 (configuration not stated)	?	-2.3%	2	0.4	13	2%
COc1ccc(NC(=O)c2nc[nH]c2C(=O)N2CCC(C)CC2)cc1	.	-1.1%	-10	-0.2	-1.7	-1%
COc1ccc(/C=N/NC(=O)c2ccc(Br)cc2)c(OC)c1	?	.	10	0.7	?	-13%
CCN(CC)S(=O)(=O)c1ccc2[nH]cc(C(=O)NCCN3CCCCC3C)c(=O)c2c1 (configuration not stated)	?	?	1	-0.3	-6.9	-1%
CN(C)Cc1cc(CCNC(=O)c2ccc(Cl)cc2)ccc1O	14%	0.6%	20	0.0	2.8	6%
CCCSc1nc2cc(OC)c(OC)cc2c(=N)n1CCCN1CCOCC1	3%[15.4 µM]	2.9%	-8	-0.7	0.4	-9%
Cc1ccsc1C1C(C#N)=C(N)N(N(C)C)C2=C1C(=O)CC(C)(C)C2 (configuration not stated)	-4%	.	-15	-0.3	-2.6	-8%
S=C1NCN(CCc2ccccc2)CN1Cc1ccccc1	-7%	-2.9%	4	-0.7	4.2	6%
CCOc1ccc(C(=O)NC2CCN(C(=O)Nc3ccccc3OC)CC2)cc1	5%	0.6%	-6	-0.3	2.5	-3%
CC1=C(C(=O)Nc2ccccc2)C(c2ccccn2)n2nc(SCc3ccccc3Cl)nc2N1 (configuration not stated)	.	1.7%	4	0.3	.	.
CC(C)C(=O)NC1CC(=O)N(c2ccc3c(c2)OCCO3)C1 (configuration not stated)	.	1.7%	-20	0.3	.	.
O=C(NC(=S)NCCSc1ccccc1)c1cccnc1	2%	1.1%	19	0.9	6.7	15%
CNC(=O)c1c(NC(=O)c2cccc(C)c2)sc2c1CCC2	4%[15.4 µM]	-7.5%	2	-0.4	-1.4	?
O=C(CCN1CCN(c2ccccc2)CC1)Nc1nccs1	7%	1.0%	7	4.2	0.5	2%
N#CCOc1nc(N2CCCCC2)nc(N2CCCCC2)n1	0%	-1.2%	19	2.0	-3.7	-8%
O=C(NN1CCOCC1)c1ccc(Cl)cc1[N+](=O)[O-]	-3%	-1.8%	-8	0.5	.	6%
Cc1oc(CC(C)C)cc1C(=O)NCCCC(=O)O	-10%	1.2%	6	0.7	-3.0	-4%

# New compounds follow.
molecule	gsp ag	ClpP mod	TRPML1 blocker	TRPML1 ag	Menin-MLL FL inh	gsp antagonist
CN(CC(=O)Nc1ccc(F)cc1)C(=O)c1ccc(OCc2ccccc2)cc1	?	-2.4%	14	-0.1	.	-1%
O=C(NC(=S)N1CCN(c2ccc(O)cc2)CC1)c1cccs1	0%	-1.8%	-8	0.3	-0.6	-5%
Cc1cc(C)n(C(=O)c2ccc(S(=O)(=O)NCC3CCCO3)cc2)n1 (configuration not stated)	-55%[inhibitor]	-6.9%	?	0.7	-1.9	-3%
O=C(O)/C=C/C(=O)Nc1cccc2c1-c1ccccc1C2=O	17%	1.5%	0	-0.5	.	6%
CCNc1nc(NCC)nc(N(C#N)CCOc2ccccc2)n1	-3%	-1.4%	-17	5.1	-6.0	6%
Cc1ccc(S(=O)(=O)N2CCN(C(=O)Cc3ccsc3)CC2)c(C)c1	-40%[inhibitor]	-0.7%	-18	-0.3	.	-4%
Cc1cc(NC(=O)C(=O)NCCN2CCN(S(C)(=O)=O)CC2)ccc1Br	-10%[15.4 µM]	.	4	-0.3	3.3	.
CNC(C)C#Cc1ccc2sc3cccc(OC)c3c(=O)c2c1 (configuration not stated)	.	-6.8%	12	-0.8	8.3	-2%
CC(=NNC(=O)C(C)SC(C)C(=O)NN=C(C)c1cccnc1)c1cccnc1 (configuration not stated)	27%	.	8	-0.4	.	8%
COc1ccc(N2C(=O)CC(NNC(=O)c3ccco3)C2=O)cc1 (configuration not stated)	6%[15.4 µM]	.	-13	0.0	4.6	11%

# Grouped by structure, those above with a COOH group.
molecule	gsp ag	ClpP mod	TRPML1 blocker	TRPML1 ag	Menin-MLL FL inh	gsp antagonist
O=C(CCCN1C(=O)S/C(=C\C=C\c2ccccc2)C1=O)Nc1ccc(C(=O)O)cc1	-16%[15.4 µM]	.	-8	-0.3	2.7	-19%
O=C(O)c1ccc(-n2c(-c3ccc(Br)cc3)n[nH]c2=S)cc1	21%	-0.3%	10	2.9	1.6	12%
Cc1oc(CC(C)C)cc1C(=O)NCCCC(=O)O	-10%	1.2%	6	0.7	-3.0	-4%
O=C(O)/C=C/C(=O)Nc1cccc2c1-c1ccccc1C2=O	17%	1.5%	0	-0.5	.	6%

# Continued.
molecule	gsp ag	ClpP mod	TRPML1 blocker	TRPML1 ag	Menin-MLL FL inh	gsp antagonist
Cc1cccc(CS(=O)(=O)c2ncc(CO)n2C)c1	-3%	-2.9%	1	-0.2	-2.0	3%
C[C@@H]1CN([C@H](C)CO)C(=O)c2cc(C#CC3CCCCC3)cnc2O[C@H]1CN(C)Cc1cccnc1	-25%	-2.0%	8	0.5	.	.
C[C@@H]1CC[C@]2(C(=O)O)CC[C@]3(C)C(=CCC4[C@@]5(C)CC[C@H](O)[C@@](C)(C(=O)O)C5CC[C@]43C)C2[C@]1(C)O (some centres not stated)	.	-3.3%	11	1.5	.	8%
Cc1cc(C)cc(N(CC(=O)NCCc2ccc(Cl)cc2)S(=O)(=O)c2c(C)noc2C)c1	.	2.3%	-10	0.5	.	.
Cc1cc2oc(C(=O)N3CCN(Cc4ccccc4)CC3)c(C)c2cc1C	-21%	-0.4%	-3	2.5	.	-7%
CC(=O)c1ccc(NC(=O)c2sc3nc(N4CCOCC4)c4c(c3c2N)CCCC4)cc1	?	?	-2	1.0	.	3%
